Mtb hypoxia inh – PubChem AID 1159583. M. tuberculosis hypoxia-regulated fluorescent reporter, fluorescence. fluorescence inhibition, % (no concentration beside the values). hit rate 0.1% among 300,000;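 active means 35 to 45% if threefold the growth effect, above 45% if 1.5-fold the growth effect; inactive means the rest, general growth blockers included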;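 further: wells of about 50 µL received 100 nL stock; 0% = vehicle wells and 100% = reference inhibitor wells; whole bacteria with a GFP reporter of the hypoxia response; strong numbers were not always called active; many hits fall short of the cut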
Bead autofluor – compound fluorescence in toxin protease inhibitor counterscreen. compound autofluorescence counterscreen, microsphere flow cytometry; hits give high values. fluorescence intensity (no concentration beside the values). hit rate 3.1% among 360,000. AID 624483;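 active means at least 3 SD above the mean of all compounds, about 16000 in these data; inconclusive means too few beads counted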;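 further: 100 nL of 1 mM stock went into each well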
BJeLR lethal – MLPCN primary cell-based screen for lethality selective to Ras in HRASV12 cells | BJeLR (HRASV12) viability, CellTiter-Glo ATP luminescence, 48 h; reference of the scale not given here | inhibition, % (no concentration beside the values) | hit rate 0.17% among 300,000 | AID 1554, 2009;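 active means replicate mean above 50%; inconclusive means above 50% but judged a plate artefact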;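 further: 50 nL library stock added to about 25 µL; numbers are from one replicate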
PrP 5UTR inh – inhibition of PrP 5' UTR reporter expression; cell-based PrP 5' UTR mRNA reporter, plate reader; inhibition, % (concentration not given with the values); hit rate 0.35% among 340,000;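 active means every replicate at 50% or more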;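 further: 0 = median of the neutral control wells; tested in H4 reporter cells; numbers are from one replicate; inactives centre near -14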
RN4220 kill – growth inhibition of S. aureus RN4220, primary screen, OD600 | hit rate 0.33% among 330,000 | 16 h | inhibition, % (no concentration beside the values);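 active means z-score of -3 or lower and OD600 up to 0.18 on both plates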;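 further: plate controls were untreated cells for no effect and reference antibiotic for full effect; stock transfer was 100 nL into about 80 µL; one replicate is shown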
Sa ugtP lethal – growth inhibition of ugtP-null S. aureus, primary screen, RN4220 ugtP deletion, OD600 | 16 h; some inactives read as strong as hits | AID 1259309, 2017 | hit rate 0.54% among 330,000 | growth inhibition, % (test concentration not listed);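 active means z-score under -3 and OD600 up to 0.15 on both plates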;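 further: plate controls were untreated wells for no effect and antibiotic for full effect; wells of about 80 µL received 100 nL stock; the first replicate is given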
Mtb hypoxia inh growth – further read-out of Mtb hypoxia inh, marked with its call; growth inhibition, %; measured here: M. tuberculosis growth (absorbance);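 0% = vehicle and 100% = reference antibiotic; read after six days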
Numbers without * were called inactive; ? = inconclusive; . = not tested or not shown.

#	SMILES	Mtb hypoxia inh growth	RN4220 kill	Bead autofluor	BJeLR lethal	Sa ugtP lethal	Mtb hypoxia inh	PrP 5UTR inh
1	COc1cc(C(=O)n2nc(C)cc2C)ccc1O	.	1.1	2427	9	6	.	-12
2	CNC(=O)CC(C(=O)O)c1ccc(OC(C)C)cc1 (stereo not given)	11	-5.4	3133	-3	-2	11	-43
3	COc1ccc(S(=O)(=O)NCc2ccccn2)cc1NC(=O)c1ccccc1	-8	1.8	6310	20	4	-1	-26
4	O=C(Nc1ccc2nn(-c3ccccc3)nc2c1)c1cccs1	7	-7.0	11697	-1	19	3	-101
5	Cc1cc(Oc2ccccc2)nc(NCc2ccccc2)n1	.	0.7	2061	7	-5	.	-17
6	O=c1c2ccccc2[nH]c(=S)n1Cc1ccccc1Cl	4	0.0	3860	-6	-20	-2	-4
7	COc1ccccc1NC(=O)c1ccc2c(O)c(S(=O)(=O)c3ccccc3)c(=O)[nH]c2c1	8	-0.5	5506	-13	1	9	-16
8	O=S1(=O)CCN2C(c3cccc4ccccc34)=CSC2=N1	-2	2.2	4557	-4	-4	-8	-8
9	C/C(N)=C(/C#N)C(=O)COC(=O)c1cccc2ccccc12	5	4.0	2087	4	3	-4	-17
10	CCn1nc(C(=O)NNS(=O)(=O)c2cc(/C=C/C(=O)O)cc(OC)c2OC)c2ccccc2c1=O	1	2.7	3532	.	0	2	-4
11	Cc1ccccc1-n1nnnc1SCC(=O)c1c(N)n(C2CC2)c(=O)[nH]c1=O	-2	3.0	6452	.	-1	9	-10
12	CCc1ccc(NC(=O)Cn2nnc(-c3ccc(C)cc3-n3cnnn3)n2)cc1	-4	-1.1	4594	-2	-8	-5	-6
13	COc1cc(NC(=O)COC(=O)CON=C(C)c2ccc3c(c2)OCO3)cc(OC)c1OC	7	-0.1	.	.	0	-2	.
14	CCN1CCN(C(=O)CN(C)S(=O)(=O)c2ccc(OC)cc2)CC1	9	1.3	9838	7	0	3	2
15	Nc1c(N2CCCCC2)c(=O)[nH]c(=O)n1-c1ccccc1	11	1.3	10380	4	-3	-1	-23
16	CCC(=O)Nc1cccc(NC(=O)c2ccc3c(c2)OCO3)c1	15	11	3857	9	-8	14	-19
17	CC(C)(C)c1ccc(C(CC(=O)O)NS(=O)(=O)Cc2ccccc2)cc1 (stereo not given)	3	7.1	3654	8	10	6	.
18	COc1ccc(CNC(=O)CSc2nc3ccc(C)cc3[nH]2)cc1	10	3.5	3657	0	6	0	-9
19	COc1ccc(C)cc1Nc1nc(-c2c(C)[nH]c3ccccc23)cs1	6	1.6	1942	-16	-3	16	-6
20	O=C(CSc1nnc2ccc(-c3ccccn3)nn12)N1CCCC1	16	1.5	6195	.	3	13	-10
21	Cc1cccc(-n2c(CCN3C(=O)c4ccccc4C3=O)nc3ccccc3c2=O)n1	-6	0.3	3722	0	-6	-9	-22
22	O=C(NCCN=C1NS(=O)(=O)c2ccccc21)c1ccc(S(=O)(=O)N2CCOCC2)cc1	.	0.7	5326	6	1	.	1
23	Cc1nn(Cc2ccccc2)c(Cl)c1C(=O)NC(C)(C)C	1	4.8	2467	-3	5	6	5
24	Cn1cccc1C(=O)OCC(=O)c1c[nH]c2ccccc12	10	12	4120	.	1	4	-178
25	CC(C)(C)c1ccc(C(=O)NCC(=O)NN=Cc2cccnc2)cc1	2	-0.8	.	.	9	4	.
26	Cc1ccc(C(=O)NCCN(C)C)cc1C	12	4.7	3523	-1	-7	7	-26
27	CN1CCCc2cc(C=O)ccc21	.	3.6	3621	-9	13	.	-1
28	COc1cccc2c1OCC(CN1CCN(C3CCCCC3)C(CCO)C1)=C2 (stereo not given)	3	2.2	3867	4	-65	12	-6
29	COc1cc(C=NNC(=O)CCC(=O)Nc2ccc(F)cc2)ccc1O	12	0.2	.	.	14	9	.
30	CSC(=S)NN=C(C)c1ccccc1	5	2.4	.	.	7	2	.
31	Cc1ccc(S(=O)(=O)N2CCOCC2)cc1C(=O)Nc1ccc(S(=O)(=O)Nc2nccs2)cc1	.	.	3791	-4	.	.	-16
32	CCOc1ccc(Cl)cc1CNc1nnnn1C	2	0.7	2072	1	1	7	1
33	CCc1ccc(Oc2coc3cc(O)ccc3c2=O)cc1	7	11	3068	4	16	-12	-38
34	CCC1(c2ccccc2)C(=O)NC(=O)NC1=O	.	2.1	6661	.	3	.	-14
35	Cc1ccc2c(c1)N(CC(=O)NCC(C)c1ccccc1)C(=O)c1cccnc1O2 (stereo not given)	.	1.1	6320	-8	-4	.	-12
36	CCNC(=O)C/C(C)=N/NC(=O)C12CC3CC(CC(C3)C1)C2	.	.	3498	5	.	.	-12

Gathered by group, those above containing a tert-butyl group.
#	SMILES	Mtb hypoxia inh growth	RN4220 kill	Bead autofluor	BJeLR lethal	Sa ugtP lethal	Mtb hypoxia inh	PrP 5UTR inh
17	CC(C)(C)c1ccc(C(CC(=O)O)NS(=O)(=O)Cc2ccccc2)cc1 (stereo not given)	3	7.1	3654	8	10	6	.
23	Cc1nn(Cc2ccccc2)c(Cl)c1C(=O)NC(C)(C)C	1	4.8	2467	-3	5	6	5
25	CC(C)(C)c1ccc(C(=O)NCC(=O)NN=Cc2cccnc2)cc1	2	-0.8	.	.	9	4	.

Following part:
#	SMILES	Mtb hypoxia inh growth	RN4220 kill	Bead autofluor	BJeLR lethal	Sa ugtP lethal	Mtb hypoxia inh	PrP 5UTR inh
37	Cc1nnc(NC(=O)c2ccc(S(=O)(=O)N3CCOCC3)cc2)s1	-1	14	.	-13	-6	11	-8
38	C(=NNc1nc2ccccc2s1)c1cccs1	0	-4.3	.	.	-19	-5	.
39	CCOC(=O)C(Cc1ccccc1)(NC(C)=O)C(=O)OCC	0	4.0	4348	-12	2	4	-16
40	C/C(CCc1ccccc1)=N\NC(=O)CC(=O)NCCc1ccccc1	.	.	2700	0	.	.	-9
41	Nc1ccc(C(=O)OCC(=O)N2c3ccccc3Sc3ccccc32)cc1[N+](=O)[O-]	5	-2.0	2482	.	0	14	-35
42	Cc1cc(C)n(-c2ccc(C(=O)NC3=NCCS3)cc2)n1	2	4.3	4670	2	3	-2	-37
43	CCN1CCN(c2nc(SC)nc3sc4c(c23)CC(C)(C)OC4)CC1	7	-14	.	2	2	1	-3
44	COC(=O)C[C@H]1c2cc(C(F)(F)F)ccc2S(=O)(=O)N1Cc1ccccc1	.	.	4127	-5	.	.	-31
45	CCCCOc1ccc(Cl)cc1CSc1nnc(CC)n1N	2	2.8	24086*	-4	-3	0	-12
46	CCOc1ccc(N2CC(O)(c3ccc(F)cc3)[N+]3=C2CCCC3)cc1 (stereo not given)	5	7.2	3991	1	4	1	-13
47	CC(=O)OCC1CCCC2=C(C)C(=O)CCC21COC(C)=O (stereo not given)	1	5.1	10427	6	3	5	-15
48	CC12CCC(c3nnc(SCc4ccc(Cl)cc4)nc31)C2(C)C (stereo not given)	5	1.4	3347	2	2	10	-17
49	COc1ccc(NC(=S)N2CCC(c3nc4ccc(Cl)cc4[nH]3)CC2)c(OC)c1	6	2.1	10316	10	3	1	-9
50	O=C(Cn1nc(Cl)nc1Cl)c1ccc([N+](=O)[O-])cc1	6	25	3748	-3	6	11	-12
51	CN(C)c1ccc(N2C(=O)CC(Sc3ccccc3C(=O)O)C2=O)cc1 (stereo not given)	3	7.4	2463	0	6	7	-19
52	Clc1ccc2scc(CN3CCCC3)c2c1	5	2.6	6129	-2	0	4	-25
53	CCC(=O)Nc1nc(-c2ccc3c(c2)OCCO3)cs1	9	5.7	6013	1	2	5	-117
54	O=C(NN=Cc1ccc(Cl)cc1)c1n[nH]c2c1CCCC2	7	1.8	.	.	5	10	.
55	CCSC1(SCC)N=C(N)C2(C#N)C(c3ccc(F)cc3)C12C#N (stereo not given)	8	-11	3323	16	6	8	-27
56	CN(Cc1cn(C)nc1-c1ccc(Oc2ccccc2)cc1)Cc1cnc2ccccn12	10	6.9	5025	7	26	-4	-23
57	CCOc1cc(C=NNc2cccc(C(=O)O)c2)ccc1OCC(=O)N1CCCCC1	0	5.1	.	.	6	12	.
58	CC(OC(=O)Cn1[nH]c(=O)c2ccccc2c1=O)C(=O)NC1(C#N)CCCCC1 (stereo not given)	7	1.4	5627	4	1	-8	-7
59	O=C(COc1ccc(-c2ccccc2)cc1)NN=Cc1cccnc1	5	4.1	.	.	-6	10	.
60	Cc1ccc(N2C(=O)N3C(c4ccc(F)cc4)C4C(=O)N(C5CCCCC5)C(=O)C4[C@]3(C)C2=O)cc1 (stereo not given in full)	-6	4.3	.	.	0	-2	.
61	CC(NC(=S)Nc1ccccc1OC(F)F)C(C)(C)C (stereo not given)	-5	5.2	2095	6	2	-7	-7
62	O=C(CSCc1cnn(-c2ccccc2)c1-n1cccc1)NCc1ccccn1	6	0.3	3261	5	2	15	-20
63	CN(C)Cc1cc(CN(C)C)c(O)c(CCc2ccccc2)n1	15	5.1	3937	0	1	12	-20
64	Cc1ccc(-n2nc3c(c2NC(=O)c2ccc4c(c2)OCO4)CS(=O)(=O)C3)c(C)c1	7	-1.4	6156	10	-3	-3	-5
65	O=C(N/N=C/c1ccc(O)cc1)c1cccc(C(F)(F)F)c1	.	.	2508	11	.	.	-14
66	CCN(CC)C(=O)CN(c1cccc(Br)c1)S(C)(=O)=O	1	5.3	4300	-7	0	4	-22
67	C=C(C)C1CC=C(C)C(=NNC(=O)c2ccc(NC(=O)CC)cc2)C1 (stereo not given)	-6	8.4	.	.	13	4	.
68	Cc1ccccc1S(=O)(=O)N1[C@@H](c2ccc(Br)cc2)C(C(=O)O)=CC[C@H]1c1ccc(Cl)cc1	-4	11	3612	.	17	-9	0
69	O=C(NCc1ccccn1)c1nc(-c2ccc(C(F)(F)F)cc2)no1	6	-0.9	2043	12	13	6	3
70	CCOC(=O)c1[nH]c(C)c(C(=O)OCc2ccccc2F)c1C	7	-0.6	5283	16	6	7	-24
71	O=C(NCCCN1CCOCC1)c1sc2cc(Cl)ccc2c1Cl	6	2.6	3366	.	0	-1	-6
72	CCOC(=O)c1[nH]nc2c1C(=O)N(CC)C2=O	.	2.4	4185	-4	5	.	-6
73	Cc1ccc(N2NC(=O)/C(=C/c3ccc(-c4ccc(Cl)c(C(=O)O)c4)o3)C2=O)cc1C	-6	4.2	6171	10	2	5	-38
74	Cc1ccc(S(=O)(=O)N2CCCC(c3nc4c(nnn4Cc4ccc5c(c4)OCCO5)c(=O)[nH]3)C2)cc1 (stereo not given)	1	4.5	6073	7	-13	-16	-3
75	Cc1ccccc1NCC(=O)N/N=C/c1ccc([N+](=O)[O-])cc1	.	.	2387	-15	.	.	-9
76	C#CCOCCOCCOCCNc1nc(N2CCN(C(=O)C(CCCCN)n3cc(CCC(=O)O)nn3)CC2)nc(N2CCN(C(=O)C(C(C)O)n3cc(CCCCN)nn3)CC2)n1 (stereo not given)	10	-0.3	.	.	3	18	.
77	O=C(CSc1nc(=O)n2ccccc2n1)NCc1ccc(F)cc1	-1	0.3	?	4	5	-3	-18

Screens as filed in PubChem.
